Screens (PubChem BioAssay)
Vif A3G = inhibitors of Vif binding to APOBEC3G peptide, primary screen, biochemical, TR-FRET, GST-Vif 1-94, biotin-A3G peptide, dose response retest (AID 1117319). Virion infectivity factor (Human immunodeficiency virus type 1 group M subtype B (isolate …. TR-FRET GST-Vif / biotin-A3G peptide binding; higher % means a stronger effect; test concentration not given here; strong numbers were not always called active. one-dose inhibition, %; IC50 in µM for titrated hits. 0.57% of 260,000 active;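 active means above the screen mean plus three standard deviations and confirmed in dose response; inconclusive means results disagree or hit not tested in dose response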;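 further: Vif residues 1-94 fused to GST binding biotinylated APOBEC3G peptide 110-148; 0% = full assay without inhibitor and 100% = GST in place of GST-Vif; retest series ran down from 100 µM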
RanGTP-Impb inh = inhibitors of RanGTP-importin-beta interaction, primary screen, biochemical, FRET, CFP-Ran, YFP-importin-beta, homogeneous; 1.1% of 300,000 active; cell-free CFP-Ran/YFP-importin-beta FRET ratio; Ran GTPase (GTP-bound) - importin-beta complex; inhibition, % (concentration not given with the values);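 active means most replicates above 15%; inconclusive means exactly half above 15%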;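 further: 0% = DMSO wells and 100% = Ran loaded with GDP instead of GTP; wells of about 40 µL received 100 nL stock; the first replicate is given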
Ecoli rRNA inh = reduced GFP signal of wild-type E. coli, primary screen, bacterial rRNA inhibitor project, GFP/RFP fluorescence, OD600, single point; E. coli WT GFP vs humanized-ribosome RFP mutants, 24 h; hits give low values; DMSO median 0, no signal -100; GFP signal change (wild-type ribosome), % (test concentration not listed); 1.6% of 350,000 active; AID 720706, 2013;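 active means significant combined selectivity score with lowered wild-type GFP, culture density cut under 30%, mutant RFP and density less affected; inactive means any of these conditions unmet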; further: one replicate is shown; some compounds called inactive have numbers as strong as hits
MLL AF4-AF9 inh = inhibitors of AF4 peptide binding to AF9, primary screen, biochemical, AlphaScreen, biotin-AF4 peptide, FLAG-AF9, single point; Protein AF-9 (Homo sapiens), P42568; inhibition, % at 10 µM; 0.47% of 350,000 active; AID 651704, 2012;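 active means every replicate reaching a set inhibition limit, whatever the replicate mean, cut at about 25% in these data; inconclusive means mean inhibition reaches that limit but some replicates miss it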;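 further: 0% = plate neutral control median and 100% = total signal loss; the record names both 10 and 1 µM as test concentration; the first replicate is given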
Target sequence (P42568 whole entry, looked up): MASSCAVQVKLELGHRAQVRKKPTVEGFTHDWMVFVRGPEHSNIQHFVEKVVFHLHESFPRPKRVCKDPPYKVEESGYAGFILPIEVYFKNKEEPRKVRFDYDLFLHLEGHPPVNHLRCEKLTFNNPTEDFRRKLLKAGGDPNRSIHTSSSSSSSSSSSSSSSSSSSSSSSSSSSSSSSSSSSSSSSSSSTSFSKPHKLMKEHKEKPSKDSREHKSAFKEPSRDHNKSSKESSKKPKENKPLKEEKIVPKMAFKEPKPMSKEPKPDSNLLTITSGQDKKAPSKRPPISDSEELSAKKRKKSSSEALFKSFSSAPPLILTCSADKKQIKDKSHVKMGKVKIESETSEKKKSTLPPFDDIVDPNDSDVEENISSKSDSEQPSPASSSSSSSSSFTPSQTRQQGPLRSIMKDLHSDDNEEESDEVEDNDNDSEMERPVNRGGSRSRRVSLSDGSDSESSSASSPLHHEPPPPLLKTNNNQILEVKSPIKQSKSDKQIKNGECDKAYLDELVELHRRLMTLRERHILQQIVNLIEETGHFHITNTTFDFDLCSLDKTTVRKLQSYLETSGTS
A1 inh = caspase 3/7 activation in MEF A1-2A-BIM cells, primary screen, A1 inhibitor project, cell-based, luminescence, HTS. Caspase-Glo 3/7 luminescence, 3 h; percent of clofoctol response, vehicle zero. AID 2462, 2010. 0.066% of 330,000 active. caspase activation, % (concentration not given with the values);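 active means over half of replicate activation scores above 10%, or exactly half above 10 with the replicate mean above 10; inconclusive means replicate mean below 10 yet half the replicates above 10; inactive means over half of replicates below 10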;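 further: wells of about 30 µL received 50 nL stock; many hits fall short of the cut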
T cruzi repl = inhibitors of intracellular T. cruzi growth, primary screen, luminescence, NIH3T3 host cells. inhibition, % (concentration not given with the values). T. cruzi beta-gal in NIH3T3, 90 h. AID 1885, 2009. 1.4% of 300,000 active;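 active means mean inhibition across valid replicates above about 55%, limit read from the data; inconclusive means mean below that limit but half or more replicates reach it; inactive means mean below it, under half of replicates reach it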;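 further: signal also drops with host cell toxicity which is not excluded here; 0% = plate median of DMSO wells and 100% = zero luminescence signal; higher percent means less beta-gal luminescence so fewer parasites; stock transfer was 50 nL into about 50 µL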
Beta apoptosis = inhibitors of cytokine-induced beta cell apoptosis, primary screen, luminescence | AID 435005, 2010 | protection from apoptosis, % (no concentration beside the values) | INS-1E cytokine-induced death, ATP luminescence, 48 h; percent of positive-control rescue, neutral wells zero | 0.8% of 300,000 active;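 active means all replicates at 75% or more, or half of them and the mean; inconclusive means half reach 75% but not the mean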;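 further: 0% = cytokine-treated negative control wells and 100% = positive control rescue; higher means more ATP so stronger rescue from cytokine killing; wells of about 40 µL received 100 nL stock; the first replicate is given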
Calb FLC = C. albicans growth inhibition with fluconazole, primary screen, CaCi-2 strain, Alamar Blue fluorescence; C. albicans CaCi-2 (fluconazole-resistant clinical isolate) + fluconazole, 48 h; growth inhibition, % (test concentration not listed); 0.57% of 300,000 active; AID 1979, 2009;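 active means most replicates above 75%; inconclusive means exactly half above 75%; inactive means most below 75%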;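 further: all wells also contain fluconazole at 8 µg/ml as a sub-toxic cotreatment; 0% = median of DMSO wells and 100% = median of geldanamycin control wells; wells of about 8 µL received 7.5 nL stock; the first replicate is given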
Ecoli rRNA inh OD600 = further read-out of Ecoli rRNA inh, marked with its call; OD600 change, %; measured here: OD600 growth;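 optical density of the mix in the first replicate; 0 = DMSO median and -100 = no signal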
Ecoli rRNA inh RFP = also measured in Ecoli rRNA inh; calls as there; RFP signal change, %; measured here: RFP humanized mutant strains;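 first replicate; 0 = DMSO median and -100 = no signal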
The depositor's hits bear a star; ? = inconclusive; nt = not tested or not shown; & = joins results of further samples.

SMILES	Vif A3G	RanGTP-Impb inh	Ecoli rRNA inh	Ecoli rRNA inh OD600	Ecoli rRNA inh RFP	MLL AF4-AF9 inh	A1 inh	T cruzi repl	Beta apoptosis	Calb FLC
CCCOc1cc(C)c(S(=O)(=O)NCc2cccs2)cc1C	nt	nt	-32	-66	2.1	-0.7	0.0	nt	-5	nt
Cc1ccccc1C(=O)Nc1ccccc1C(=O)NCc1ccccc1	-1%	-3.1	nt	nt	nt	nt	0.0	13	0	61
Cc1ccccc1NC(=O)NNC(=O)COc1ccc2ccccc2c1	nt	2.5	-1	2	0.1	-4.1	-0.4	-1	-2	1
c1nc2ccc(Cc3ccc4nc[nH]c4c3)cc2[nH]1	nt	0.7	9	8	1.0	-1.0	0.9	14	-7	-2
CCCCn1c(N)c(N(CCOC)C(=O)c2c(C)noc2C)c(=O)[nH]c1=O	-13%	-0.2	2	6	-1.2	-0.5	-0.6	-8	0	11
CC(C)OC(=O)c1cc(C(=O)c2cc(Br)ccc2O)coc1=N	-11%	-1.9	-27	-35	-2.9	-1.2	-0.1	4	0	-2
O=[N+]([O-])c1cc2c(cc1Br)CCN2	3%	0.3	49	21	0.8	2.3	-0.4	2	-1	5
Cc1nc(N2CCN(Cc3ccccc3)CC2)c(C#N)c2c1COC(C)(C)C2	2%	4.0	nt	nt	nt	nt	-0.9	17	-4	3
Cn1c(=O)c2c(nc(N/N=C/c3ccc(OC(=O)c4ccco4)cc3)n2Cc2ccc(F)cc2)n(C)c1=O	nt	-5.8	nt	nt	nt	nt	-0.8	4	12	37
O=C1/C(=C/c2cccs2)SC(=S)N1c1cccc(O)c1	5%	-0.4	-5	4	11	1.1	0.2	1	-1	30
CCOC(=O)N1CCC(NC(=O)c2cc(C(=O)Nc3ccc(S(=O)(=O)N4CCCCC4)cc3)ccc2CO)CC1	0%	2.3	10	16	5.1	-2.5	0.4	-13	-5	-12
CCOC(=O)c1c(NC(=O)c2cccc(N3C(=O)CCC3=O)c2)sc(C)c1C	-12%	1.1	nt	nt	nt	nt	0.2	13	-8	24
CC[n+]1c(/C=C/Nc2ccccc2)oc2ccc(OC)cc21	3%	2.7	19	17	0.7	-1.3	-0.4	8	18	4
O=C(NC1CCCCC1)C1CCCN1S(=O)(=O)c1ccc(F)cc1 (stereo unspecified)	nt	-3.8	6	13	-1.0	-3.9	0.0	-6	0	-5
O=C(NCc1ccccn1)c1ccc(CNS(=O)(=O)c2cccc(C(F)(F)F)c2)cc1	10%	-2.0	-21	-24	-0.3	-0.4	0.0	-6	-1	-1
CCCOc1ccc(-c2c(=O)n(O)c3ccccc3[n+]2[O-])cc1	9%	-4.1	-2	-7	-0.7	-2.2	-1.0	5	2	25
O=C(CSc1nnc2ccc(-c3ccccn3)nn12)Nc1ccccc1	6%	-1.8	10	6	-0.9	-7.1	-0.4	0	nt	4
Cc1ccc(S(=O)(=O)N(C)C)cc1NC(=O)COC(=O)COc1ccc2c(C)cc(=O)oc2c1	-8%	nt	18	12	-1.4	-11	0.3	nt	-6	nt
Cc1nc2sc(C(c3ccccc3)N3CCOCC3)c(O)n2n1 (stereo unspecified)	2%	-1.7	11	2	-4.7	0.8	0.0	-13	nt	2
CCC(CC)c1nnc(NC(=O)CS(=O)(=O)c2ccc(C)cc2)s1	-5%	-1.5	2	8	7.1	1.0	0.2	2	-7	13
COc1ccc(N2CCN(C(=O)c3cccc(NC4=NC5CS(=O)(=O)CC5S4)c3)CC2)cc1 (stereo unspecified)	-4%	-1.1	6	12	-1.0	-0.4	0.8	-12	2	-5
O=C(N/N=C/c1ccccn1)c1cc(-c2cccc3ccccc23)n[nH]1	nt	0.7	-30	-34	-5.3	4.1	0.0	6	3	-10
CCN(CC)C(=O)c1cc2c(=O)n3cccc(C)c3nc2s1	-5%	-5.2	-10	-9	0.2	-0.6	-1.8	-1	1	6
O=C1/C(=C\c2ccco2)SC(=S)N1Cc1ccccc1	3.6µM*	-2.9	nt	nt	nt	nt	-0.3	-2	-11	4
O=C(NC(=S)N1CCN(CCO)CC1)C12CC3CC(CC(C3)C1)C2	-9%	-1.2	9	6	-1.9	0.4	0.1	-9	-3	-8
O=c1c(-c2cccc(Cl)c2)c[nH]n1-c1ccccc1	4%	4.8	-16	-40	-2.5	-5.3	-3.9	-1	6	1
CC(C)NC(=S)N/N=C/c1ccc2c(c1)OCCO2	20%	5.3	5	3	5.7	-9.9	-3.1	2	3	-2
COc1cc(NC(=O)c2cccnc2)c(Cl)cc1NC(=O)c1ccc(Cl)cc1	nt	0.7	5	17	-1.3	-2.9	0.4	2	3	-3
CCN1CCN(C(=S)c2ccc(OCC(=O)NCc3ccccc3)cc2)CC1	-22%	-1.9	4	6	1.7	-4.6	0.5	11	-2	13
C[C@H](NC(=O)c1nc[nH]c1C(=O)N[C@@H](C)C(=O)OC(C)(C)C)C(=O)OCc1ccccc1	nt	2.1	8	-3	6.8	-2.2	-0.2	15	-6	3
Cc1c(C)n2c(SCC(=O)N3CCCCC3)nnc2[nH]c1=O	1%	1.7	13	15	-2.7	-5.6	-0.4	-8	-1	-2
Cc1csc(SCC(=O)NCc2ccccc2Cl)n1	nt	4.4	4	11	2.7	0.2	0.1	-4	2	-9
Cc1cccc(C(=O)Nc2nnc(C3=COCCO3)o2)c1	10%	-0.2	-4	7	-6.8	1.1	-0.8	-11	-3	10
Cc1cc(N)n2ncc(-c3ccccc3)c2n1	-5%	-5.3	nt	nt	nt	nt	-5.0	-9	-3	-2
COc1ccc(Cc2nnc(SCC(=O)Nc3c(C)cccc3C)[nH]c2=O)cc1	nt	3.8	0	5	0.4	-8.3	1.8	-21	nt	-1
Cc1ccc(N2C(=O)C3C(C2=O)C2C=CC3C23CC3)cc1 (stereo unspecified)	19%	nt	nt	nt	nt	nt	0.4	1	2	-2
CC(c1nnc(SCC(=O)Nc2sccc2C#N)n1-c1ccc(Cl)cc1)N(C)C (stereo unspecified)	9%&4%	-4.1	-4	1	3.1	nt	-0.5	-1	1	13
Cc1ccc2nc(Cl)c(C3CC(c4ccco4)=NN3S(C)(=O)=O)cc2c1 (stereo unspecified)	nt	-1.0	-2	-1	5.4	4.3	-0.8	0	-6	-4
Cc1cc(/C=N/NC(=O)c2ccc(O)cc2)c(C)n1CC(C)C	nt	-1.4	12	11	2.0	-3.3	1.2	-7	-4	0
O=C(CN1C(=O)NC(Cc2ccccc2)C1=O)Nc1ccc(OC(F)(F)F)cc1 (stereo unspecified)	-9%	nt	nt	nt	nt	5.0	-0.1	nt	1	nt
O=C(Nc1ccc(Cl)cc1)N1CCSCC1	-5%	-0.6	nt	nt	nt	nt	-1.2	6	2	-2
CCCCOc1cccc(C(=O)Nc2ccc(S(=O)(=O)Nc3nnc(CC)s3)cc2)c1	nt	-4.6	-45	-76	-9.9	-3.2	-4.1	-2	-6	-11
CCN(CC)S(=O)(=O)c1ccc(Cl)c(C(=O)NCc2ccco2)c1	6%	-4.6	8	1	-4.2	-0.5	1.0	0	-4	-2
O=C(O)c1cc(-c2ccc(/C=c3\sc4nc5ccc(Br)cc5n4c3=O)o2)ccc1Cl	nt	-0.7	nt	nt	nt	nt	0.4	-7	-8	8
COc1ccc(C(=O)N/C(=C\c2cccs2)c2nc3ccccc3[nH]2)cc1OC	-4%	nt	nt	nt	nt	nt	0.9	4	-4	18
CC(C)C(=O)N1CCN(c2ccccc2NC(=S)NC(=O)c2cccs2)CC1	-4%	-3.6	8	15	1.6	4.7	0.3	-4	1	1
CS(=O)(=O)c1ccc(Cl)c(NC(=O)COC(=O)Cc2c[nH]c3ccccc23)c1	-1%	-1.2	-11	-12	0.0	?	0.2	-5	-4	nt
Cc1ccc(NC(=S)N(CCN2CCOCC2)Cc2cc3cc4c(cc3[nH]c2=O)OCO4)cc1	-1%	-14	nt	nt	nt	-0.5	0.6	13	-3	-2
CCN(CC(=O)Nc1cc(Cl)ccc1C)C(=O)COc1cccc2c1OC(C)(C)C2	nt	0.0	2	6	-0.3	-1.0	-0.4	4	-2	-4
COc1ccc(-c2nc(C#N)c(NCCc3ccccc3)o2)cc1	18%	3.1	-10	-4	-1.7	0.2	-0.4	-1	12	-14
CN1/C(=C\C=N\NC(=O)c2ccc(O)cc2)C(C)(C)c2ccccc21	24%	0.0	nt	nt	nt	nt	-0.1	17	113*	1
Cc1cc(C)c2c(c1)/C(=N\N=c1\sc3ccccc3n1C)C(=O)N2	1%	3.1	14	12	3.6	-42	0.0	48	13	4
C/C(=N\Nc1nncc2ccccc12)c1ccc(O)cc1	nt	1.7	4	8	-0.5	-1.8	-0.2	2	8	1
Cc1nn(CC(=O)Nc2ccc(Cl)cn2)c(C)c1[N+](=O)[O-]	1%	2.5	nt	nt	nt	nt	0.0	14	3	-2
CCOc1ccccc1-c1nc(-c2ccncc2)no1	-4%	-5.8	nt	nt	nt	nt	-7.1	-8	4	-5
Cc1ccc(S(=O)(=O)N2CCN(C(=O)c3cc4c(C)nn(-c5ccccc5)c4s3)CC2)cc1	-15%	?	nt	nt	nt	nt	-0.2	54	9	0
O=C(c1ccc(N2C(=O)C3CC=C(Cl)CC3C2=O)cc1)N1CCCCC1 (stereo unspecified)	-1%	5.8	nt	nt	nt	nt	0.5	-13	1	-8
O=C(OCC(=O)N1CCN(c2ccccc2)CC1)c1ccncc1	nt	nt	6	12	-2.4	0.7	0.9	nt	5	nt
COC(=O)c1ccc(NC(=O)C23CC4CC(C2)CC(n2cncn2)(C4)C3)cc1	27%	-0.1	nt	nt	nt	nt	0.4	12	4	-9
Cc1ccccc1NC(=S)NCc1ccccc1	nt	0.5	nt	nt	nt	nt	-0.3	-15	-2	-9
COc1ccc(CCn2c(N3CCN(Cc4ccccc4)CC3)nc3c2c(=O)[nH]c(=O)n3C)cc1	0%	-4.2	nt	nt	nt	nt	0.1	0	-4	1
COc1ccc(N(CC(=O)NCCc2ccccc2)C(=O)c2csnn2)cc1	nt	3.3	-3	-23	-3.5	2.8	0.0	-5	-6	-7

Not all compounds are listed, so the mix of outcomes need not match the whole.
